# KCNQ2 pot – KCNQ2 (rat) channel potentiation; AID 2239; B-score at 10 µM; CHO-K1 KCNQ2, FluxOR thallium flux fluorescence; active compounds read high; 310,000 tested, 0.54% active;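 active = fluorescence ratio B-score at least 3 SD of library B-scores, with initial fluorescence B-score within 3 SD, cut at about 5.3 in these data; same plate scores as AID 2156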;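 also: B-score of peak minus minimum over baseline fluorescence ratio after K+ and Tl+ stimulus; positive B-score means potentiation of KCNQ2 with more thallium influx and brighter signal; only the inactives scoring about 0 or higher are listed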
# Target sequence (O88943 whole entry, looked up): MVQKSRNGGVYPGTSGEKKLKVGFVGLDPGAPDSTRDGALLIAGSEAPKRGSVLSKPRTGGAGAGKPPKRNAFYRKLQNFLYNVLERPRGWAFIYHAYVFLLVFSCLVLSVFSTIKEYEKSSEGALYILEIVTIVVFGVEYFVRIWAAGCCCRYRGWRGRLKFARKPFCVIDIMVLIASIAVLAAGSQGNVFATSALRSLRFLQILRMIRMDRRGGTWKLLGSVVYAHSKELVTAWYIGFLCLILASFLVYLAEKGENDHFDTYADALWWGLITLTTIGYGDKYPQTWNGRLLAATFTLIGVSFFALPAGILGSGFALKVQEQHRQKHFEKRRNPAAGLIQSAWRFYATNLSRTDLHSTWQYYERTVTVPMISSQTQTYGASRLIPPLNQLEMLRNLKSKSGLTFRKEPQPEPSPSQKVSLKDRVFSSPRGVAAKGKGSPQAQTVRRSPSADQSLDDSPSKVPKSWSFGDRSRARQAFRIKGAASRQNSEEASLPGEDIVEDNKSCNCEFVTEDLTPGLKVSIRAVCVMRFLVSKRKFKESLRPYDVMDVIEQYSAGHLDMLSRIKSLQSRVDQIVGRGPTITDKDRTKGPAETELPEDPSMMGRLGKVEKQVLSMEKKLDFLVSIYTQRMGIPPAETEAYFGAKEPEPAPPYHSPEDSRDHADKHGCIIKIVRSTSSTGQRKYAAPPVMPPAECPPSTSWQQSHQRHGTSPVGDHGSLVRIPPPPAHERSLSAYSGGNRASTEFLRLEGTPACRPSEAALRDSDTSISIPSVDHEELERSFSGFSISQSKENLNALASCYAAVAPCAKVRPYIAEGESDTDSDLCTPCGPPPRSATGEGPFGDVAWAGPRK
# KCNQ2 pot baseline – also measured in KCNQ2 pot; calls as there; B-score; compound at 10 µM; measured here: initial fluorescence intensity artifact check;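 brightness before thallium and not channel activity; 0 = typical well and far values either way flag optical interference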
# Numbers without * were called inactive. Not all compounds are listed; the hit share may differ from the screen's.
SMILES	KCNQ2 pot	KCNQ2 pot baseline
CCn1cc([N+](=O)[O-])c(C(=O)Nc2nc3ccc(OC)cc3s2)n1	0.02	-0.34
O=S1(=O)CCC(S(=O)(=O)N2CCCCCC2)C1 (stereo unspecified)	1.1	-0.5
CCOC(=O)c1c(S(=O)(=O)N2CCN(Cc3ccccc3)CC2)c(C)n(C)c1C	0.58	-0.25
COc1nc(C)ccc1-c1noc(-c2cccnc2)n1	0.39	-0.59
CCn1c(=O)cc(OCC(=O)Nc2cc(C)ccn2)c2ccccc21	0.17	-0.65
Cc1ccc2c(c1)CCCN2C(=O)C1CCCO1 (stereo unspecified)	1.5	0.37
O=C(CN1C(=O)C2CCCCC2C1=O)Nc1ccccc1N1CCCC1 (stereo unspecified)	0.66	-0.68
O=C(N/N=C/CCc1ccccc1)c1ccc(CN2c3cccc4cccc(c34)S2(=O)=O)cc1	0.78	0.84
COc1ccc(CNC(=O)CN2C(=O)C3C4C=CC(C4)C3C2=O)cc1 (stereo unspecified)	1.7	-0.54
O=C(c1cc(COc2ccc(F)cc2Cl)on1)N1CCN(C2CCCCC2)C(=O)C1	0.03	-1.7
CC1CCN(CCNC(=O)C2CCCN(c3ncnc4c3nc3n4CCCCC3)C2)CC1 (stereo unspecified)	0.24	-0.19
Cc1ccc(-c2ocnc2C(=O)Nc2nc(C)cs2)cc1	1.8	-2.2
CCOc1ccc(Cl)cc1S(=O)(=O)N1CCC(C(=O)NCC2CCCO2)CC1 (stereo unspecified)	1.1	-0.04
O=C(CCNC(=O)c1ccc(Br)cc1)Nc1ccc(S(=O)(=O)Nc2ncccn2)cc1	0.94	0.05
OC(CN1CCOCC1)Cn1c2ccccc2c2ccccc21 (stereo unspecified)	1.1	-0.08
O=C1CCC(=O)N1c1cccc(-c2nc3ccccc3o2)c1	0.23	0.01
O=C(c1c(Cl)nc2sccn12)N1CCCc2ccccc21	1.2	0.02
CCS(=O)(=O)c1ccc(O)c(N2C(=O)C3C4C=CC(C4)C3C2=O)c1 (stereo unspecified)	0.62	-0.78
O=C(CC1OC(=O)c2ccccc21)Nc1cccc(S(=O)(=O)N2CCCCCC2)c1 (stereo unspecified)	0.24	-2.9
O=C(NC(=S)Nc1cccc(-c2ccc(CO)o2)c1)c1cccs1	0.23	0.07
Cc1ccc(NC(=O)c2ccc(S(=O)(=O)NCc3cccnc3)cc2)cc1C	1.8	0.76
Cc1cccc(Nc2nc(CC(=O)O)cs2)c1	0.68	-0.15
COC(=O)c1ccc(NC(=O)c2ccc3c(c2)OCO3)cc1	0.26	0.02
Cc1cc(S(=O)(=O)N2CCOCC2)c(C)s1	1.7	-0.51
O=C(c1cc(COc2cccc(C(F)(F)F)c2)on1)N1CCC(Oc2cccnc2)CC1	1.3	0.23
COc1ccccc1CC(=O)Nc1ccc2[nH]ncc2c1	0.15	-0.72
COc1cc(-c2nc3c(c(C)nn3-c3ccccc3)c3cc(OC)c(OC)cc23)ccc1O	0.2	-1.2
c1ccc(Oc2cccc(OCCCn3cncn3)c2)cc1	0.05	1
C=CCn1c(SCC(=O)Nc2ccc(O)cc2)nc2sc(CC)cc2c1=O	1.2	-1.2
C/C(=C\c1cccc(Cl)c1)C(=O)c1c(C)cc(C)[nH]c1=O	0.07	-0.22

# Reformatted with values ahead of the structure: part of the list above
KCNQ2 pot,KCNQ2 pot baseline,Molecule
1.2,-1.2,C=CCn1c(SCC(=O)Nc2ccc(O)cc2)nc2sc(CC)cc2c1=O
0.62,-0.78,CCS(=O)(=O)c1ccc(O)c(N2C(=O)C3C4C=CC(C4)C3C2=O)c1 (stereo unspecified)
0.23,0.01,O=C1CCC(=O)N1c1cccc(-c2nc3ccccc3o2)c1
1.8,0.76,Cc1ccc(NC(=O)c2ccc(S(=O)(=O)NCc3cccnc3)cc2)cc1C
1.2,0.02,O=C(c1c(Cl)nc2sccn12)N1CCCc2ccccc21

# Remaining list, next part:
SMILES	KCNQ2 pot	KCNQ2 pot baseline
Cc1c(Cl)cccc1NC(=S)NCCc1ccccn1	0.42	-1.6
Cc1ccc(CNC(=O)NC23CC4CC(CC(C4)C2)C3)cc1	11*	-2.5*
CCN(C(=O)CCCC(=O)N(CC)c1ccccc1)c1ccccc1	0.21	-0.22
COc1ccccc1NC(=O)CN(c1ccccc1F)S(C)(=O)=O	0.07	1.6
CCOC(=O)c1oc2ccccc2c1COC(=O)CNC(=O)c1ccccc1	0.08	1.1
O=C(O)c1ccc(S(=O)(=O)N(Cc2ccccc2)Cc2ccccc2)cc1	0.02	0.18
COc1ccc(-n2c(=S)[nH]c3cc(C(=O)NCc4ccccc4OC)ccc3c2=O)c(OC)c1	1.6	-0.81
Cc1cccn2c(=O)c3cc(S(=O)(=O)c4ccccc4)c(=N)n(Cc4cccnc4)c3nc12	0.38	3
Cc1ccccc1NC(=O)c1cccc(C(=O)Nc2ccccc2C)c1	0.09	-1.4
O=C(O)CCN1C(=O)/C(=C2\C(=O)N(Cc3ccccc3Cl)c3ccccc32)SC1=S	0.26	0.7
COc1cccc(NC(=O)c2ccc(NC(=O)C(C)C)cc2)c1	0.42	-3.2
O=C(Cn1cc(Cl)c([N+](=O)[O-])n1)NCCC1=CCCCC1	0.14	0.01
C=C(C)C(=O)N1CC2(CC(c3cccc(NC(=O)CC)c3)=NO2)C[C@H]1C(N)=O (stereo partly specified)	0.54	-0.48
CC(=NCCN1CCN(C(C)=C2C(=O)c3ccccc3C2=O)CC1)C1=C(O)CC(C)(C)CC1=O	0.13	0.01
O=C(CSc1nc2[nH]ncc2c(=O)[nH]1)NCc1ccccc1	0.2	-1.4
CC(=O)Nc1cccc(NC(=O)c2cc3ccccc3o2)c1	0.06	1.9
O=C(CSc1nncc2ccccc12)N1CCCCC1	0.34	0.64
CCCC(C(=O)N1CCOCC1)N1C(=O)C2C3C=CC(C3)C2C1=O (stereo unspecified)	0.67	0.03
Cc1cc(/C=C2\SC(=S)NC2=O)cc(C)c1O	0.89	-0.19
O=C(COC(=O)c1ccc(F)cc1)Nc1nc2ccc([N+](=O)[O-])cc2s1	0.69	-0.81
Cc1noc2ncnc(SCc3ccc(C(F)(F)F)cc3)c12	0.02	-0.59
c1ccc(Oc2cccc(CN3CCCCC3)c2)cc1	0.34	2
COc1ccc(N2CC(C(=O)Nc3ccc4c(c3)OCCO4)CC2=O)cc1 (stereo unspecified)	0.78	-1.2
CCOC(=O)c1cnc2ccc(Br)cc2c1NCCO	1.5	-0.29
Cn1c(=O)c2ccccc2n(CC(=O)NC2CCCC2)c1=O	3.2	-1.6
CCOc1ccc2nc(NCCCNS(=O)(=O)c3ccc(C)cc3)c(C#N)cc2c1	0.54	0.72
CC(C)CC(NC(=O)C(NC(=O)OC(C)(C)C)C(C)C)C(=O)N1CCCC1C(N)=O (stereo unspecified)	0.5	-2
COc1ccc(-c2csc3nc(C)n(-n4cccc4)c(=O)c23)cc1OC	0.35	0.07
Cn1cc(C(=O)N2CCN(c3ccccc3)CC2)c(=O)c2cc(S(=O)(=O)N3CCOCC3)ccc21	0.96	-1.4
CN(C)C(=O)c1cc(C(=O)c2ccccc2)c[nH]1	2.4	-1
CCOc1ccc(/C=N/NC(=O)C2CC2)c(OCC)c1	0.03	-0.34
Cc1onc(-c2ccccc2Cl)c1C(=O)Nc1ccc(-c2cn3cccnc3n2)cc1	0.62	-3.4
CCOC(=O)NC(=O)C(=CNc1ccc(C)cc1)C(=O)NC(=O)OCC	0.01	-0.87
Cc1ccc(OCC(=O)N/N=C/c2cn[nH]c2-c2ccc(Cl)c(Cl)c2)cc1	0.46	-0.68
CC(NS(=O)(=O)c1ccccc1)C(=O)Nc1nccs1 (stereo unspecified)	0.26	0.02
CCC(C)[C@H](NC(=O)N1CCn2c1nc1ccccc12)C(=O)NCCc1ccc(OC)c(OC)c1 (stereo partly specified)	0.2	-1.5
COc1ccccc1C(O)Cc1nc2ccccc2n1C (stereo unspecified)	0.02	0.35
CCOc1ccc(NC(=O)C2CCCN(S(=O)(=O)c3cnc[nH]3)C2)cc1 (stereo unspecified)	0.3	-0.41
CCOC(=O)N1CCC(NC(=O)CCc2nc(-c3ccc(C)cc3)no2)CC1	1.4	-1.6
NC(=O)c1ccc(-n2nnnc2SCC(=O)Nc2ccccc2-c2ccccc2)cc1	0.57	0.36
Cc1cc(-c2ccccc2)cc(-c2ccccc2)[n+]1C	1.3	0.18
Cn1c(SCC(=O)NC2CCCCC2)nnc1-c1cc2ccccc2o1	0.27	1.2
O=C(CS(=O)(=O)c1cn(Cc2ccc(F)cc2)c2ccccc12)N1CCOCC1	1.3	-1.1
COc1ccc(NC(=O)C2=Cc3cccc(OC)c3OC2)cc1	2.2	-0.21
O=C(N/C(=C\c1ccco1)C(=O)N1CCCC1)c1ccccc1	0.08	-1.7

# Carrying on:
# Order of results – KCNQ2 pot, KCNQ2 pot baseline
CCCN(Cc1ccccc1)C(=S)NC(=O)c1ccccc1[N+](=O)[O-]
→ 13*, -0.17*
COc1ccc(CN2CC(C(=O)NC3CCCCC3)CC2=O)cc1 (stereo unspecified)
→ 0.3, -0.23
O=C(Nc1ccccc1N1CCOCC1)c1ccc(N2CCOCC2)c([N+](=O)[O-])c1
→ 0.37, 1.8
CCCCOc1cccc(NC(=O)CSc2nncn2C)c1
→ 0.28, 0.36
CCC(=O)c1cn(CC(=O)Nc2ccccc2)c2ccccc12
→ 0.02, 0.27
COc1ccccc1NC(=O)C(CC=C(Cl)Cl)C(C)=O (stereo unspecified)
→ 0.29, -0.29
COc1ccccc1NC(=O)c1ccccc1S(=O)(=O)c1ccc([N+](=O)[O-])cc1
→ 0.06, 0.81
COc1ccc(-c2noc(N3CCC(C(=O)NCc4ccc(F)cc4)CC3)n2)cc1
→ 1.4, 3.5
COc1ccc(-c2nc3n(c(=O)c2C#N)CCCS3)cc1
→ 0.03, -0.5
C=CCn1c(Oc2cc(C)ccc2C)nc2c1c(=O)n(C)c(=O)n2C
→ 1.5, -2.1
CCN(CC)S(=O)(=O)c1cccc(C(=O)NC(C(=O)NC2=NCCS2)C(C)C)c1 (stereo unspecified)
→ 0.24, -0.38
O=C(Nc1cnc2sccn2c1=O)c1ccc(Cl)cc1Cl
→ 0.77, -0.35
COc1ccccc1[C@@H]1C(c2ccc(F)cc2)=NN(c2ccccc2)[C@H]1C(=O)N1CCOC1=O
→ 0.07, 0.25
C/C(=N\NC(=O)CNc1ccccc1)c1ccccc1
→ 1.9, 0.12
CCCCc1nc2ccccc2c(N)c1CCC (tested in a mixture with another compound)
→ 0.82, -0.14
Cc1c(N)cc(N)cc1C(=O)O
→ 0.32, 2.5
COc1ccc2c(c1)c(C(=O)CN1CCC(C(N)=O)CC1)c(C)n2C
→ 0.03, 1.7
CCCCCc1nnc(NC(=O)NS(=O)(=O)c2ccc(C)cc2)s1
→ 0.33, -1.1
CC(C)(C)C(=O)/C=C1\NC(=O)CS1
→ 1.3, -0.64
COc1ccc(OC)c(CNC(=O)CCS(=O)(=O)c2ccc3c(c2)oc(=O)n3C)c1
→ 1, 0.71

# At a glance, part of the list above:
# Order of results – KCNQ2 pot, KCNQ2 pot baseline
Cc1c(N)cc(N)cc1C(=O)O
→ 0.32, 2.5
COc1ccc2c(c1)c(C(=O)CN1CCC(C(N)=O)CC1)c(C)n2C
→ 0.03, 1.7

# (continued)
# Order of results – KCNQ2 pot, KCNQ2 pot baseline
CCC(=O)Nc1ccc(-c2ccc(N3CCN(C)CC3)nn2)cc1
→ 1.9, -0.99
Cc1cc(N=Cc2cc(Br)ccc2O)no1
→ 9.1*, 0.24*
O=C(O)Cn1nnn(-c2ccccc2)c1=S
→ 0.19, 1.4
O=C(NCCCN1CCCC1)c1ccc2c(c1)N(Cc1ccccc1)CCS2
→ 2.4, -1.3
CCOC(=O)CNC(=O)N1CCCC(CNS(=O)(=O)c2cccs2)C1 (stereo unspecified)
→ 1.3, -0.54
Cc1ccccc1NC(=O)Cn1nnc(-c2ccc(N3CCOCC3)cc2)n1
→ 0.42, -0.01
COc1ccc(NC(=O)c2cc(-c3ccccc3Cl)on2)cc1
→ 0.14, -0.13
COc1cc(-c2nnc(NC(=O)C3=COCCO3)o2)cc(OC)c1OC
→ 2.2, 0.44
CC(C)c1ccc(CCNC(=O)CCNC(=O)c2ccc(Br)cc2)cc1
→ 1.7, -0.41
Cc1c(NC(=O)CN2CCCc3ccccc32)c(=O)n(-c2ccccc2)n1C
→ 0.66, 0.47
COc1ccc(-n2c(SCC(=O)N3CCCCC3)nc(O)cc2=O)cc1
→ 2.3, 0.24
Cc1ccccc1C(=O)Nc1nc2n(n1)C(c1ccccc1)CC(=O)N2 (stereo unspecified)
→ 0.01, 0.24
O=C(CSc1nc2ccccc2o1)Nc1nncs1
→ 0.01, -0.14
[N-]=[N+]=N[C@@H](CCN1CC[C@H](NC(=O)OCc2ccccc2)CCC1=O)c1ccccc1
→ 1.4, -0.03
O=S(=O)(NCCSc1ccccc1)c1cccs1
→ 0.87, 0.4
NNC(=O)/C(=C/c1cccs1)NC(=O)c1ccccc1Cl
→ 0.57, 0.72
O=C(Nc1ccnc(-c2cccnc2)n1)c1cccc(Cl)c1Cl
→ 0.29, 0.55
CCCCc1nc2sc3c(=O)n(N)cnc3c2c2c1CCC2
→ 0.88, -0.33
CC(COc1ccccc1)N(CCCl)Cc1ccccc1 (stereo unspecified)
→ 0.73, 0.4
O=[N+]([O-])c1ccc(CN2CCN(c3ccc4ccccc4n3)CC2)cc1
→ 0.35, -0.18
COC(=O)c1ccc(CO/N=C/c2ccc(OC)cc2OC)cc1
→ 0.1, 0.02

# Compound profiles (already shown). Order of screens: KCNQ2 pot | KCNQ2 pot baseline
# Record of `O=C(CS(=O)(=O)c1cn(Cc2ccc(F)cc2)c2ccccc12)N1CCOCC1` = 1.3 | -1.1
# Record of `Cc1c(N)cc(N)cc1C(=O)O` = 0.32 | 2.5
# Record of `COc1ccc(-n2c(SCC(=O)N3CCCCC3)nc(O)cc2=O)cc1` = 2.3 | 0.24
# Record of `CC(C)(C)C(=O)/C=C1\NC(=O)CS1` = 1.3 | -0.64
